Screening results from PubChem.
MLL AF4-AF9 inh: MLL-AF4/AF9 protein interaction inhibition; inhibition, % at 10 µM; AID 651704; AlphaScreen, biotin-AF4 peptide binding to FLAG-AF9; 0.47% of 350,000 active; P42568;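 active = every replicate reaching a set inhibition limit, whatever the replicate mean, cut at about 25% in these data; inconclusive = mean inhibition reaches that limit but some replicates miss it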;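 note: 0% = plate neutral control median and 100% = total signal loss; the record names both 10 and 1 µM as test concentration; the first replicate is given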
Target sequence (P42568 whole entry, looked up): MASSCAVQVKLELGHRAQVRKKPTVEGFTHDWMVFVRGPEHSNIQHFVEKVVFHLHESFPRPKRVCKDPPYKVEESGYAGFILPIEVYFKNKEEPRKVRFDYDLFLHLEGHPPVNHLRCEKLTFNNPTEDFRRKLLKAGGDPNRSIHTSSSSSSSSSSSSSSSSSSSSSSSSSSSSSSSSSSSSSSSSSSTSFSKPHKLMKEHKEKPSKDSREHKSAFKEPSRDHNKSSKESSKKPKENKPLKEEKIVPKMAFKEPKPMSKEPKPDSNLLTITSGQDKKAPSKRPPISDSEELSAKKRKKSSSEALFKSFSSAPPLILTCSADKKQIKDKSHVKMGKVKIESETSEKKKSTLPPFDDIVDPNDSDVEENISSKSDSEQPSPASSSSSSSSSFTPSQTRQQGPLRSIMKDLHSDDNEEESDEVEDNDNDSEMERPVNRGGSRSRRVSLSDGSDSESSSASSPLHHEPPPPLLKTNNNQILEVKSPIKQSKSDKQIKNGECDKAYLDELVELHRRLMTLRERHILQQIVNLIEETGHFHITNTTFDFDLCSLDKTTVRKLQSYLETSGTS
Beta apoptosis: blocks beta cell apoptosis; protection from apoptosis, % (test concentration not listed); 0.8% of 300,000 active; INS-1E cytokine-induced death, ATP luminescence, 48 h; percent of positive-control rescue, neutral wells zero;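 active = all replicates at 75% or more, or half of them and the mean; inconclusive = half reach 75% but not the mean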;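 note: 0% = cytokine-treated negative control wells and 100% = positive control rescue; higher means more ATP so stronger rescue from cytokine killing; wells of about 40 µL received 100 nL stock; the first replicate is given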
UCH37 DUB inh: inhibitors of human deubiquitinating enzyme UCH37. Q9Y5K5. purified proteasome/UCH37, Ub-AMC cleavage fluorescence. inhibition, % (concentration not given with the values). 0.33% of 330,000 active;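 active = mean of two replicates above 20%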;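 note: 0% = compound-free wells with enzyme and 100% = wells lacking proteasome; stock transfer was 100 nL into about 20 µL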
Target sequence (Q9Y5K5 whole entry, looked up): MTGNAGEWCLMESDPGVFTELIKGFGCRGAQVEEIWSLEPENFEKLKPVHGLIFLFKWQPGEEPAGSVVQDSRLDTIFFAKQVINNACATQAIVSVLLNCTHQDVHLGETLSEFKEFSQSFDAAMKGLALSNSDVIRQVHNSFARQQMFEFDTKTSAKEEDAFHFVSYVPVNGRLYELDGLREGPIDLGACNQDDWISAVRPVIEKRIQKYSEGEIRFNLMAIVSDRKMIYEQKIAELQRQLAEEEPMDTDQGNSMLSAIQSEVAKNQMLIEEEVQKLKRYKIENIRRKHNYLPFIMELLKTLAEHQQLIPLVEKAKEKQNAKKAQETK
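Signal – fluorescence, ex 355 nm, em 460 nm · System – Proteasome-bound UCH37 · Input – 0.15 nM proteasome as dispensed · Timing – 30 min preincubation with enzyme, 25 min cleavage at room temperature · Read-out basis – percent inhibition of cleavage signal versus uninhibited and no-proteasome wells · Medium – Tris-HCl pH 7.4 with ATP-MgCl2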
Ecoli rRNA inh: selective bacterial rRNA inhibition in E. coli. E. coli WT GFP vs humanized-ribosome RFP mutants, fluorescence, 24 h; active compounds read low; DMSO median 0, no signal -100. GFP signal change (wild-type ribosome), % (no concentration beside the values). 1.6% of 350,000 active. AID 720706;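 active = significant combined selectivity score with lowered wild-type GFP, culture density cut under 30%, mutant RFP and density less affected; inactive = any of these conditions unmet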; note: one replicate is shown; some compounds called inactive have numbers as strong as hits
A1 inh: inhibitors of the anti-apoptotic protein A1, read as caspase activation | MEF A1-2A-BIM cells, Caspase-Glo 3/7 luminescence, 3 h; percent of clofoctol response, vehicle zero | 0.066% of 330,000 active | caspase activation, % (no concentration beside the values) | AID 2462;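 active = over half of replicate activation scores above 10%, or exactly half above 10 with the replicate mean above 10; inconclusive = replicate mean below 10 yet half the replicates above 10; inactive = over half of replicates below 10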;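 note: wells of about 30 µL received 50 nL stock; many hits fall short of the cut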
FGF22 binding: binders of recombinant human FGF22 by thermal shift; AID 651658; 1.5% of 340,000 active; SYPRO orange fluorescence; percent of sucrose octasulfate shift, DMSO zero; calls only at 9.99 µM; Q9HCT0;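 active = melting point raised past a set limit in the mean and every replicate; inconclusive = no clear call; three in four hits are not shown here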
Target sequence (Q9HCT0 whole entry, looked up): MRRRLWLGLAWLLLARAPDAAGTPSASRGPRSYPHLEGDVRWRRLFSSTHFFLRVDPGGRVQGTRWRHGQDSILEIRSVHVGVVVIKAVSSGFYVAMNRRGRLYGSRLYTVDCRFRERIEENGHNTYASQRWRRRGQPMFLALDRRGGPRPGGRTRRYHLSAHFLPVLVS
T cruzi inh: T. cruzi replication inhibition | inhibition, % (test concentration not listed) | T. cruzi beta-gal in NIH3T3, luminescence, 90 h | AID 1885 | 1.4% of 300,000 active;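 active = mean inhibition across valid replicates above about 55%, limit read from the data; inconclusive = mean below that limit but half or more replicates reach it; inactive = mean below it, under half of replicates reach it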;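 note: signal also drops with host cell toxicity which is not excluded here; 0% = plate median of DMSO wells and 100% = zero luminescence signal; higher percent means less beta-gal luminescence so fewer parasites; stock transfer was 50 nL into about 50 µL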
E coli growth: E. coli growth inhibition | 0.21% of 330,000 active | Escherichia coli growth, OD600, 23 h; active compounds read low | OD600 absorbance (concentration not given with the values);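 active = OD600 absorbance below the run mean of sample wells minus 3.6 SD, in any replicate, cut at about 0.56 in these data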;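 note: stock transfer was 300 nL into about 60 µL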
Ecoli rRNA inh OD600: second read-out of Ecoli rRNA inh, no call of its own (marks repeat the call); OD600 change, %; measured here: OD600 growth;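 optical density of the mix in the first replicate; 0 = DMSO median and -100 = no signal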
Ecoli rRNA inh RFP: recorded beside Ecoli rRNA inh, whose call it bears; RFP signal change, %; measured here: RFP humanized mutant strains;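 first replicate; 0 = DMSO median and -100 = no signal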
* marks the source's active call; other numbers are inactive results; i = inactive; ? = inconclusive; / = not tested or not shown. The list is partial, so the mix of outcomes need not match the whole.

Values run as follows: A1 inh, FGF22 binding, Beta apoptosis, MLL AF4-AF9 inh, T cruzi inh, Ecoli rRNA inh, Ecoli rRNA inh OD600, Ecoli rRNA inh RFP, E coli growth, UCH37 DUB inh
1	CCN1CCN(Cc2cccnc2)CC1
 : 1.3, i, -1, -1.1, -2, -1, 6, -0.8, 0.65, -0.4
2	CCN(C(=O)COC(=O)c1cc(C)n(C2CC2)c1C)c1ccccc1
 : 0.1, i, 4, 6.0, /, 3, -4, 4.2, 0.66, 3.2
3	O=C(Nc1ccc(F)cc1)N1CC2CC(C1)c1cccc(=O)n1C2 (stereo unspecified)
 : -0.2, /, 1, /, -6, /, /, /, 0.74, -0.1
4	O=c1[nH]sc2cc(F)ccc12
 : /, i, /, -13, 87*, -57, -83, -16, 0.49*, 2.7
5	COc1ccc(C=C2C(=O)N(C)C(=O)N(C)C2=O)cc1CSc1ccccn1
 : -0.1, /, -8, /, 1, /, /, /, 0.7, 2.2
6	CN1C(=O)C(=Cc2ccccc2OCc2ccc(Cl)cc2)C(=O)N(C)C1=O
 : -5.0, i, -1, -5.0, -4, 25, 8, 1.7, 0.66, 2.2
7	Cc1cccc(-n2c(C)nc3cc(C(=O)N4CCC5(CC4)OCCO5)ccc32)c1
 : -0.1, i, 0, 5.5, 3, -10, -9, -5.9, 0.69, 5.0
8	CCOc1ccc(C(C)=O)cc1Cn1ccsc1=N
 : 0.9, i, 4, 6.4, -6, 11, 12, 4.0, 0.7, 3.4
9	CC(=O)OC1=CC[C@H]2[C@@H]3CC[C@H]4C[C@H](OC(C)=O)[C@@H](OC(C)=O)C[C@]4(C)[C@H]3CC[C@]12C
 : -0.1, i, 2, 0.5, /, /, /, /, 0.77, 2.7
10	Cc1nc2sccc2c(=O)n1-c1ccccc1Cl
 : 1.1, /, -5, /, -8, /, /, /, 0.68, 2.8

Later entries.
Values run as follows: A1 inh, FGF22 binding, Beta apoptosis, MLL AF4-AF9 inh, T cruzi inh, Ecoli rRNA inh, Ecoli rRNA inh OD600, Ecoli rRNA inh RFP, E coli growth, UCH37 DUB inh
11	O=C1N[C@@H](Cc2ccccc2)C(=O)N2[C@H]1C[C@H]1c3ccccc3N(OOSc3ccccc3)[C@H]12
 : -1.4, i, -1, 1.5, 16, -9, -10, -1.8, /, 5.5
12	COc1ccccc1NC(=O)N1C[C@@H]2C[C@@H](C1)c1cccc(=O)n1C2
 : 0.8, i, /, -1.2, -2, /, /, /, 0.77, 1.7
13	CCn1c(NN=O)nc2ccccc21
 : -0.4, i, 99*, 11, ?, -4, -5, 3.2, 0.67, 9.9
14	CCSC(=O)N1CCCCCC1
 : -0.1, i, -2, /, /, 0, -1, 0.2, 0.67, 0.0
15	Cn1nccc1C(=O)N1CCC2(CC1)OCCO2
 : 0.7, i, /, 0.3, 0, 17, 8, 2.4, 0.69, -2.1
16	Oc1cc(Cl)c(Cl)c(Cl)c1
 : /, i, /, /, /, -61, -81, -22, 0.068*, -2.8
17	COc1ccc(Cn2c(O)c(C=NCCN3CCOCC3)c(=O)[nH]c2=O)cc1
 : -0.3, /, -8, /, 3, /, /, /, 0.58, 0.7
18	COc1ccc(-c2nn(CCC#N)cc2C(=O)Nc2ccccc2Br)cc1[N+](=O)[O-]
 : 0.6, i, 6, -4.2, 1, -6, -12, -1.6, 0.69, 4.4
19	CC(=O)N[C@@H]1CC[C@@]2(O)[C@H]3Cc4ccc(O)c5c4[C@@]2(CCN3CC2CC2)[C@@H]1O5
 : /, i, /, /, /, 8, 6, 2.5, 0.76, -0.3
20	CC1(C)C2CC=C(CN3CCC(O)CC3)C1C2 (stereo unspecified)
 : 0.1, i, 5, 4.3, 8, 9, 5, -6.1, 0.65, 2.4

Carrying on.
Values run as follows: A1 inh, FGF22 binding, Beta apoptosis, MLL AF4-AF9 inh, T cruzi inh, Ecoli rRNA inh, Ecoli rRNA inh OD600, Ecoli rRNA inh RFP, E coli growth, UCH37 DUB inh
21	COC(=O)C1=C(c2cc3ccccc3s2)C[C@@H]2CC[C@H]1N2C(=O)NCc1ccco1
 : 1.3, /, -5, /, 12, /, /, /, /, 1.4
22	O=c1c2ccccc2nc(/C=C/c2ccc(O)cc2)n1-c1ccccc1O
 : 1.1, i, 3, 3.7, 11, -27*, -17*, 4.5*, 0.69, -8.5
23	CC/C(=N\Nc1cccc2ccccc12)c1c(O)[nH]c(=O)[nH]c1=O
 : 0.5, i, 63, 0.6, 11, 9, 14, 1.4, /, /
24	CCOc1ccccc1N1C(=O)CC(=O)NC1=O
 : 0.3, i, -2, -1.6, -17, 14, 11, -3.0, 0.67, 1.4
25	CCOC(=O)C1(c2ccccc2)CCN(CCC(=O)Nc2ccccc2OC)CC1
 : -0.2, i, -3, 3.3, 13, -1, 0, 0.5, 0.66, 4.9
26	CCc1nccc2c1[nH]c1ccccc12
 : -0.6, i, -2, -3.0, -11, 12, 13, -7.6, 0.62, -481
27	COc1cc(OC)c2c(c1)O[C@@H](c1ccc(OC)c(OC)c1)[C@H](O)C2
 : -0.1, i, -7, 1.6, 2, 6, 1, 0.0, 0.63, 1.7
28	C/C=C/c1ccc2c(c1)OCO2
 : -0.2, i, 18, /, /, 8, 5, 1.1, /, /
29	CC(C)(C)c1ccc(C(=O)C2CCCN(Cc3ccon3)C2)cc1 (stereo unspecified)
 : -0.1, i, -2, -0.6, 22, -20, -20, -0.5, 0.64, 0.9
30	CC(C)CNC(=O)C1c2ccccc2Oc2ccccc21
 : 0.8, i, -5, -1.2, -4, 24, 13, -0.4, 0.64, 0.7

New compounds follow
Values run as follows: A1 inh, FGF22 binding, Beta apoptosis, MLL AF4-AF9 inh, T cruzi inh, Ecoli rRNA inh, Ecoli rRNA inh OD600, Ecoli rRNA inh RFP, E coli growth, UCH37 DUB inh
31	CCCC12CN3CCN(CC(C3)/C1=N\NC(=O)c1ccncc1)C2
 : 1.2, i, /, -3.0, -13, 11, 12, 0.8, /, /
32	CCN(CC)P(=O)(NC(=O)c1cccn1C)N(CC)CC
 : 0.6, i, -2, -2.6, -10, 17, 10, -8.7, 0.69, 3.6
33	CC(C)(C)NC(=O)Cn1cc(C(=O)c2ccccc2F)c2ccccc21
 : -0.2, /, 0, /, 11, /, /, /, 0.76, 2.1
34	CN(C)[C@@H]1C(=O)C(C(N)=O)=C(O)[C@@]2(O)C(=O)C3=C(O)c4c(O)cccc4[C@@](C)(O)C3C[C@@H]12 (stereo partly specified)
 : -0.9, i, -1, -12, -11, /, /, /, /, -5.8
35	CCN(C(=O)COC(=O)Cc1ccccc1)c1c(N)n(Cc2ccccc2)c(=O)[nH]c1=O
 : 0.6, i, 4, -8.3, /, 1, 14, -3.1, 0.68, 0.2
36	COc1ccc(CN2C(=O)NC(=O)/C(=C/c3ccc(OC)c(OC)c3OC)C2=O)cc1
 : 0.5, i, 3, /, -9, 10, 5, 2.2, /, /
37	COc1ccc(CC2C(=O)NC(=O)NC2=O)c(OC)c1
 : 0.1, /, -3, /, -5, /, /, /, 0.75, -0.8
38	O=C(c1ccc2c(c1)ncn2C1CCCCCC1)N1CCC2(CC1)OCCO2
 : ?, /, 1, /, 12, /, /, /, 0.73, -0.5
39	Cn1c(O)c(C=NC2CC3CCC2(C)C3(C)C)c(=O)[nH]c1=O (stereo unspecified)
 : 0.6, /, -4, /, /, /, /, /, 0.73, -0.2
40	O=c1[nH]c(=S)n(Cc2ccc(F)cc2)c(O)c1/C=N/N1CCCCCC1
 : 0.5, /, -2, /, -2, /, /, /, 0.69, 1.5

Screen by screen, quoted from above:
Entries 31–40 in UCH37 DUB inh: /, 3.6, 2.1, -5.8, 0.2, /, -0.8, -0.5, -0.2, 1.5

New compounds follow
Values run as follows: A1 inh, FGF22 binding, Beta apoptosis, MLL AF4-AF9 inh, T cruzi inh, Ecoli rRNA inh, Ecoli rRNA inh OD600, Ecoli rRNA inh RFP, E coli growth, UCH37 DUB inh
41	O=C1NC(=O)C(=Cc2ccc(SC3CCCCC3)o2)C(=O)N1
 : -0.5, i, -7, -1.9, -2, 25, 16, 7.3, 0.62, 2.9
42	O=C(c1ccccc1)c1ccc(N=Nc2c(O)[nH]c(=O)[nH]c2=O)cc1
 : 1.8, i, 0, -2.3, -16, 18, -3, 1.2, 0.62, 4.9
43	COC(=O)C1=C(c2cc3ccccc3s2)C[C@@H]2CC[C@H]1N2C(=O)NCc1ccccc1
 : 0.2, i, /, 7.1, 3, -22, -41, -9.3, /, 2.2
44	Cc1cc(OC(C)C(=O)NCC(O)c2ccccc2)c2c3c(c(=O)oc2c1)CCCC3 (stereo unspecified)
 : -0.3, i, 5, 3.1, 27, -16, -37, -3.5, 0.66, -59
45	CCOc1ccc(N2C(=O)NC(=O)/C(=C\c3ccc(N4CCOCC4)cc3C)C2=O)cc1
 : 1.7, i, -8, -2.7, -2, 2, -2, 0.3, 0.69, -1.1
46	c1ccc(CCN2CCC3(CC2)OCCO3)cc1
 : -1.9, i, -3, 1.2, 9, 3, 9, -1.0, 0.69, 5.7
47	CCN1C[C@]2(COC)CC[C@H](O)[C@]34C1[C@](O)([C@@H](OC)[C@H]23)[C@@]1(O)C[C@H](OC)[C@H]2C[C@@H]4[C@@H]1[C@H]2OC
 : 0.5, i, -8, -1.1, /, 6, 10, 0.8, /, 1.5
48	Cc1ccccc1N1C(=O)NC(=O)/C(=C\c2cc(C)n(C)c2C)C1=O
 : -0.4, i, 4, 0.7, -30, 3, 5, 0.8, /, /
49	COC(=O)C1=C(c2cccc(C#N)c2)C[C@@H]2CC[C@H]1N2C(=O)N1CCOCC1
 : -0.6, i, -2, -2.5, /, 10, 11, 0.5, /, 4.4
50	NP(=O)(Oc1ccccc1)c1ccccc1 (stereo unspecified)
 : /, i, /, 3.4, /, 6, 12, 2.1, 0.63, 2.0

New compounds follow
Values run as follows: A1 inh, FGF22 binding, Beta apoptosis, MLL AF4-AF9 inh, T cruzi inh, Ecoli rRNA inh, Ecoli rRNA inh OD600, Ecoli rRNA inh RFP, E coli growth, UCH37 DUB inh
51	Oc1ccccc1/C=N/NP(=S)(c1ccccc1)c1ccccc1
 : -0.1, i, 6, 7.4, 10, -12, 6, -0.5, /, /
52	CCOc1cc2c(cc1OCC)-n1cccc1C(c1ccc(F)cc1)NC2 (stereo unspecified)
 : 0.4, i, -4, 20, 20, -5, -15, 0.6, 0.66, -0.6
53	CCN(CC)CCN=Cc1c(O)n(Cc2ccco2)c(=O)[nH]c1=O
 : 0.3, i, 0, 0.6, /, 11, 7, -0.4, 0.67, -0.1
54	CN(C)c1nc(-c2ccccc2)[n+](C)s1
 : 1.1, /, -3, /, -15, /, /, /, 0.76, 3.4
55	Cc1cc(=O)oc2c(C)c(OCC(=O)N3C[C@H]4C[C@@H](C3)c3cccc(=O)n3C4)ccc12
 : 0.7, i, -2, 3.4, -8, /, /, /, 0.7, -5.2
56	CC1(C)Cc2c(C#N)c(N3CCNCC3)nc(-c3ccco3)c2CS1
 : -0.5, i, 4, 7.8, 3, 7, 2, 3.2, 0.64, -32
